Screening results deposited in PubChem BioAssay by Johns Hopkins Ion Channel Center.
KCNQ2 inh = KCNQ2 potassium channel inhibitors, primary screen, cell-based, CHO-K1, FluxOR thallium flux, B-score (AID 2156); O88943; 20 min; active compounds read low; only compounds with negative scores are shown here; some inactives read as strong as hits; B-score at 10 µM; 310,000 compounds, 1.1% hits;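 active means fluorescence ratio B-score at most minus 3 library SDs, with starting brightness B-score within 2 library SDs, cut at about -5.5 in these data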
Target sequence (O88943 whole entry, looked up): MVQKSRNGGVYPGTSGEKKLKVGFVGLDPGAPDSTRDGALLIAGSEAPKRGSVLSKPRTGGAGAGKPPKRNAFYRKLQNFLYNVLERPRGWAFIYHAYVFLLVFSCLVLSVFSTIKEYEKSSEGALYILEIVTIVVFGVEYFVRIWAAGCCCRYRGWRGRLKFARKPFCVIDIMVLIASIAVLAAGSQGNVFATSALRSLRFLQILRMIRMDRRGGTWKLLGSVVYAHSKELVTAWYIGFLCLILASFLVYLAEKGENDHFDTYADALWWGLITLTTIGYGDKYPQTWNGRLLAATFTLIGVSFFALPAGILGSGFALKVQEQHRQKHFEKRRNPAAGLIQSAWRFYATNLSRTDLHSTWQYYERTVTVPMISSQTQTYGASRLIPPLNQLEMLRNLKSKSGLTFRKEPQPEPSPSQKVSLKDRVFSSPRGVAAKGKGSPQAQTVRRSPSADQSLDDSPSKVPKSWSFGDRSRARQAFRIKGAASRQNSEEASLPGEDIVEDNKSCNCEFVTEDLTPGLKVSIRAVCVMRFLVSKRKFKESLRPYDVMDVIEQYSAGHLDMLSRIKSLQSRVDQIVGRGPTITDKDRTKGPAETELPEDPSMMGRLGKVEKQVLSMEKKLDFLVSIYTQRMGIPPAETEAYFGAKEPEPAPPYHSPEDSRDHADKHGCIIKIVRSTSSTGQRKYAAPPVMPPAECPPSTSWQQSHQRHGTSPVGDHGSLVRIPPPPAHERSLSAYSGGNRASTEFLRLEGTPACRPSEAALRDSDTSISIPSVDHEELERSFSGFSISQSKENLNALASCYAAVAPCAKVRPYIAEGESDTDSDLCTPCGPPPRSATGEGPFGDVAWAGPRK
KCNQ2 inh baseline = further read-out of KCNQ2 inh, marked with its call; B-score; measured here: initial fluorescence intensity artifact check;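 brightness before thallium and not channel activity; 0 = typical well and far values either way flag optical interference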
Numbers without * were called inactive; i = inactive. These rows are one share of the data (hit frequency here may not be typical).

SMILES | KCNQ2 inh | KCNQ2 inh baseline
CCOC(=O)C(C(=O)NCC1CCCO1)C1CCCCC1 (configuration not stated) | i | 1.2
O=C(NCc1ccc(F)cc1)C1CCCN(S(=O)(=O)c2cccc3nonc23)C1 (configuration not stated) | i | 1.4
COc1ccccc1NC(=O)c1ccc(COc2ccccc2OC)o1 | i | 0.16
C=CCN(CC=C)C(=O)CCc1nnc(CCc2c[nH]c3ccccc23)o1 | i | -1.7
COc1cc(NC(=O)C2CCCO2)c(C(=O)O)cc1OC (configuration not stated) | i | -0.68
O=C(COC(=O)Cc1ccc(Cl)cc1Cl)NCCC1=CCCCC1 | i | 0.08
O=C1CN(C(=O)COc2ccccc2)CCN1 | i | 0.79
O=C(NC1CCN(Cc2ccccc2)CC1)C1CCN(c2nnc(-n3cccc3)s2)CC1 | i | -1.3
O=C(Nc1cccc(C(F)(F)F)c1)C(Sc1cccc[n+]1[O-])c1ccccc1 (configuration not stated) | i | 1.2
CCC(=O)N1CCN(c2cc(NCC3CCCO3)c(F)cc2[N+](=O)[O-])CC1 (configuration not stated) | i | -0.67
Cc1[nH]c2ccccc2c1C(O)CN1CCN(c2cccc(C(F)(F)F)c2)CC1 (configuration not stated) | i | -1.6
CCn1nnc(-c2ccccc2NC(=O)c2cc(OC)cc(OC)c2)n1 | i | -0.8
CSCCC(NC(=O)c1ccccc1Cl)C(=O)NNC(=O)c1ccccc1O (configuration not stated) | i | -0.83
CCC(C)N=CC1=C(O)C(C(=O)OC)C(C)(C)CC1=O (configuration not stated) | i | 0.19
CCOc1ccc(S(=O)(=O)Nc2ccc(Cl)cn2)c(C)c1C | i | 0.55
CC(C)C(OC(=O)c1ccco1)C(=O)NCc1ccco1 (configuration not stated) | i | 1
Cc1cc(C)cc(NC(=S)NC(=O)C2CC2)c1 | i | 0.11
O=C(/C=C/c1ccco1)Nc1ccc(N2CCCC2)cc1 | i | 0.8
Cn1c(=O)c2c(ncn2CC(=O)NCc2cccnc2)n(C)c1=O | i | -0.53
CC(=O)c1cccc(NC(=O)N2CCCC2C(=O)NCCc2ccccc2)c1 (configuration not stated) | i | -0.13
N#CC(=C=[N-])c1nc2ccccc2nc1-[n+]1cccc(NC(=O)c2ccc(F)cc2)c1 | i | 0.69
CCOC(=O)C1=C(C)N(c2ccc(Cl)cc2)C(=O)NC1c1cccc([N+](=O)[O-])c1 (configuration not stated) | i | -0.59
Cc1ccc2cccc(OCc3nnc(SCC(=O)O)n3C)c2n1 | i | 2.5
O=C(NCc1cccnc1)[C@@H]1CC=C[C@@H]2CCN(Cc3ccc(Cl)c(Cl)c3)C(=O)[C@@H]21 | i | 2.1
NNC(=O)/C(=C\c1ccc(Br)cc1)NC(=O)c1cccs1 | i | -0.4
More compounds.
SMILES | KCNQ2 inh | KCNQ2 inh baseline
CCCC(=O)Nc1nc2ccc(NC(=O)c3cccnc3)cc2s1 | i | -1.5
CCCN(CCC)C1CC(=O)N(Cc2ccccc2)C1=O (configuration not stated) | i | 0.31
O=C(/C=C/Nc1ccccc1O)c1ccco1 | i | 0.65
O=C(COc1ccccc1)N1CCN(C(=O)c2cccc(F)c2)CC1 | i | 1.3
COC(=O)CCC(=O)Oc1ccc(OC(=O)CCC(=O)OC)cc1 | i | 0.01
CCOc1ccccc1NC(=O)CN(C)S(=O)(=O)c1cnc[nH]1 | i | 0.76
Cc1ccccc1NS(=O)(=O)c1ccc(C)c(C(N)=O)c1 | i | 1.5
CC(C)Oc1ccc(CNC(=S)Nc2ccccc2)cc1Cl | i | -0.89
CCN(CC)CCNC(=O)COc1ccc(OC)cc1 | i | -0.46
CC(C)CN(CC(C)C)S(=O)(=O)N1CCC(C(=O)NCc2ccc(F)cc2)CC1 | i | 1.8
CCOc1cc(/C=C/C(=O)Nc2ccc(C(=O)NCCN(CC)CC)cc2)ccc1OCC(C)C | i | 0.66
CCc1cccc(CC)c1NC(=O)c1cc(CN2C(=O)c3ccccc3C2=O)ccc1OC | -8* | 0.58*
Cc1ccc2cccc(OC(=O)/C=C\c3ccccc3)c2n1 | i | -0.03
CCCCCCc1ccc(N2C[C@H](Cc3ccccc3)[C@@H](CC(=O)NCc3ccc(OC)cc3)C2=O)cc1 | i | 0.26
CSc1nc(NS(=O)(=O)c2ccc(F)cc2F)nn1C | i | -0.23
CCOCCN1CCN(c2c(CC)c(C)nc3cc(-c4cc(OC)cc(OC)c4)nn23)CC1 | i | -0.62
COc1ccc(CCC(=O)NCCS(=O)(=O)N2CCN(c3ccccc3)CC2)cc1 | i | -0.87
CC1/C(=N/O)CC(c2ccco2)NC1c1ccco1 (configuration not stated) | i | 2.2
O=C(NCCC1=CCCCC1)C1CCC(CNc2c(N3CCCCC3)c(=O)c2=O)CC1 (configuration not stated) | i | -0.27
Cc1c(Cl)cccc1NC(=O)CCC(=O)NNC(=O)CCC(=O)O | i | -0.35
CC(C)[C@H](NC(=O)c1ccco1)C(=O)NC12CC3CC(CC(C3)C1)C2 | i | 0.84
COc1ccccc1-c1nnc(SC(C(=O)c2c[nH]c3ccccc23)c2ccccc2)n1C (configuration not stated) | i | 0.01
CN(CC(=O)Nc1cccc(F)c1)C(=O)c1ccc2c(=O)n3c(nc2c1)CCC3 | i | -0.11
CC(NC(=S)NCc1ccc(F)cc1)C12CC3CC(CC(C3)C1)C2 (configuration not stated) | i | -0.94
Cc1ccc(C(=O)OCC(=O)NCCC2=CCCCC2)cc1N | i | 0.52

In the list so far, 4 contain an aryl thioether with sulfur outside any ring.
SMILES | KCNQ2 inh | KCNQ2 inh baseline
O=C(Nc1cccc(C(F)(F)F)c1)C(Sc1cccc[n+]1[O-])c1ccccc1 (configuration not stated) | i | 1.2
Cc1ccc2cccc(OCc3nnc(SCC(=O)O)n3C)c2n1 | i | 2.5
CSc1nc(NS(=O)(=O)c2ccc(F)cc2F)nn1C | i | -0.23
COc1ccccc1-c1nnc(SC(C(=O)c2c[nH]c3ccccc23)c2ccccc2)n1C (configuration not stated) | i | 0.01

Next structures
SMILES | KCNQ2 inh | KCNQ2 inh baseline
CO/N=C(/c1nonc1N)N1CCN(c2ccc([N+](=O)[O-])cc2)CC1 | i | -1.1
COc1cc(-c2nnc(SCC(=O)OC3CCCCC3)o2)cc(OC)c1OC | i | -1.1
CC(=O)N[C@@H](Cc1ccc(OC(F)(F)F)cc1)C(=O)O | i | 0.43
O=C(Nc1cccc(S(=O)(=O)NC2=NCCC2)c1)c1c(F)cccc1Cl | i | -2.3
CSC1=NC2C(N1)N(C)C(=O)N2C (configuration not stated) | i | -0.44
COc1ccc(C(=O)c2cc(C(C)=O)c(Nc3ccccc3)s2)cc1 | i | 0.37
CC(=O)Oc1ccc(-c2nc3cc(Cl)ccc3c(=O)o2)cc1 | i | 0.53
Cc1ccc(-c2c(C(=O)NC(C)C)oc(=O)c3ccccc23)cc1 | i | -1
Cc1cc(NC(=O)CCC(=O)N(c2ccccc2)C(C(=O)NC2CCCC2)c2cccs2)no1 (configuration not stated) | i | -1.3
CC1CCN(S(=O)(=O)c2cccc(C(=O)NC3CCCC3)c2)CC1 | i | -2.7
CCOC(=O)[C@H]1[C@H]2COc3cc(OC)ccc3[C@@H]2N2C(=O)N(c3ccc(Br)cc3)C(=O)[C@@]12C | i | 1.1
Cc1ccc(S(=O)(=O)NCc2ccc3c(c2)OCO3)cc1C | i | -0.37
CC(C)OC(=O)c1c(NC(=O)c2ccco2)sc2c1CCCCC2 | -6.3* | -1.1*
CNc1oc(-c2ccc(C)cc2)nc1P(=O)(c1ccccc1)c1ccccc1 | i | -0.53
O=[N+]([O-])c1ccc(N/N=C/c2ccccc2)c(F)c1 | i | -0.35
CCc1c(C)nc(SCC(=O)NNC(=O)c2ccco2)[nH]c1=O | i | 0.03
O=C(CCCn1c(=S)[nH]c2cc3c(cc2c1=O)OCO3)N1CCN(c2ncccn2)CC1 | i | 1.1
COc1ccccc1C(=O)NC(=O)COC(=O)C1CC1C (configuration not stated) | i | 0.09
C=CCn1c(=O)n(C(=O)OCC)c2cc(Br)ccc21 | i | 2.8
CC1=NN(c2ccccc2)C(=O)/C1=C/c1cn(C)c2ccccc12 | i | 0.61
COc1ccccc1C/C(N)=N/OC(=O)COc1ccc(C)cc1C | i | 0.03
COc1ccccc1N1CCN(C2CCCN(C(=O)c3cc(C)oc3C)C2)CC1 (configuration not stated) | i | -0.15
CNC(C)C#Cc1ccc2c(=O)c3ccccc3oc2c1 (configuration not stated) | i | -2.3
CCn1c(CNC(=O)c2ccccc2Cl)cc2ccccc21 | i | -0.63
O=C(Nc1ccc(F)cc1)c1cccc(N2C(=O)C3C4C=CC(C5CC45)C3C2=O)c1 (configuration not stated) | i | -0.22

Looked up above:
Entry of `CCOC(=O)[C@H]1[C@H]2COc3cc(OC)ccc3[C@@H]2N2C(=O)N(c3ccc(Br)cc3)C(=O)[C@@]12C` under KCNQ2 inh baseline: 1.1
Entry of `COc1ccccc1C(=O)NC(=O)COC(=O)C1CC1C` (configuration not stated) under KCNQ2 inh baseline: 0.09

(cont.)
SMILES | KCNQ2 inh | KCNQ2 inh baseline
CC(=O)c1cccc(NC(=O)CN2C(=O)C3C4C=CC(C4)C3C2=O)c1 (configuration not stated) | i | -0.32
CCC(=O)Oc1ccc2c(C)cc(=O)oc2c1C(=O)CC | i | -0.01
NC(=O)Cn1nc(-c2ccccc2)nc1-c1ccccc1 | i | 1.1
CCOC(=O)c1ccc(CNC(=O)Cn2nnc(-c3ccccc3)n2)o1 | i | 1.2
COc1ccc(CS(=O)c2nc(C)cc(C)c2S(C)(=O)=O)cc1 (configuration not stated) | i | -0.01
COc1cc2cccc(OC)c(=O)c2c(OC)c1OC | i | 0.38
CCOc1ccc(C(=O)c2cc([N+](=O)[O-])ccc2Cl)cc1 | i | 0.3
CCOc1ccc(C(=O)Nc2cccc(C(=O)O)c2C)cc1Cl | i | 0.03
O=C1CC(c2ccco2)=Nc2ccccc2N1 | i | -0.62
CCOC(=O)c1ccccc1NS(=O)(=O)c1ccc(OC)cc1 | i | -0.89
N#Cc1c(NC(=O)c2cc(-n3cnnc3)ccc2Cl)sc2c1CCCC2 | i | -0.01
Cn1c(SCc2ccc(Br)cc2)nnc1-c1cccs1 | i | 2.2
Cc1cccn2cc(-c3cccc(NC(=O)c4cccs4)c3)nc12 | i | 0.22
COc1ccc(CC(=O)Nc2cc(NC(=O)Cc3ccc(OC)c(OC)c3)cc(C(=O)O)c2)cc1OC | i | 0.7
Cc1cccc(OCCCC(=O)Nc2ccc(N3CCCCC3)cc2)c1 | i | -0.14
Cc1ccc(NC(=O)COC(=O)CCNS(=O)(=O)c2ccc(C)c(C)c2)cc1 | i | 0.04
CCC(C)(C)NC(=O)C(c1ccc(F)cc1)N(Cc1ccccc1)C(=O)c1cnccn1 (configuration not stated) | i | 0.03
CC(=O)N1CCN(S(=O)(=O)c2cccc(C(=O)Nc3ccc4c(c3)CCC4)c2)CC1 | i | 2.6
Cc1ccc(NC(=O)CSc2nc(=O)n3cc(C)ccc3n2)c(C)c1 | i | 1.1
Cc1c(Cl)cccc1NC(=O)c1cccc(NC(=O)CCC(=O)O)c1 | i | 0.64
CCCN1CCC(N2CCN(c3cccc(C(F)(F)F)c3)CC2)CC1 | i | 2.4
CCOCCCNC(=O)Cn1cnc2c(cnn2-c2ccc(F)cc2)c1=O | i | 1.1
CC1=CC(C)(C)Nc2ccc(OC(=O)c3ccco3)cc21 | i | -1.3
Cc1cccc(NS(=O)(=O)c2ccc(C(=O)NCC(c3ccco3)N(C)C)cc2)c1C (configuration not stated) | i | 0.37
O=S(=O)(c1ccccc1)N1N=C(c2ccc(O)cc2)CC1c1ccco1 (configuration not stated) | i | -0.74

Rewritten field by field: entries from further up
> Cn1c(SCc2ccc(Br)cc2)nnc1-c1cccs1
  KCNQ2 inh: i; KCNQ2 inh baseline: 2.2
> CCOC(=O)c1ccc(CNC(=O)Cn2nnc(-c3ccccc3)n2)o1
  KCNQ2 inh: i; KCNQ2 inh baseline: 1.2
> CCCN1CCC(N2CCN(c3cccc(C(F)(F)F)c3)CC2)CC1
  KCNQ2 inh: i; KCNQ2 inh baseline: 2.4
> Cc1cccc(NS(=O)(=O)c2ccc(C(=O)NCC(c3ccco3)N(C)C)cc2)c1C (configuration not stated)
  KCNQ2 inh: i; KCNQ2 inh baseline: 0.37

Continuation.
SMILES | KCNQ2 inh | KCNQ2 inh baseline
Cc1ccc(CCSCC(=O)O)cn1 | i | -0.83
Cc1cc(C)cc(N(CC(=O)N2CCCCCC2)S(C)(=O)=O)c1 | i | 3.6
CCC(=O)NC(c1cccs1)c1ccc2cccnc2c1O (configuration not stated) | i | 0.03
COc1cccc(-c2cc(CC3(O)CCN(CCCc4ccccc4)CC3)on2)c1 | i | -1.4
CC1=C(C(=O)OC(C)C)C(c2ccc(C)o2)C(C(=O)OC(C)C)=C(C)N1 | i | -0.29
COc1ccc(S(=O)(=O)N(Cc2cccs2)C2CCCC2)cc1 | i | -0.35
Cc1cc(C(=O)NCc2ccc(S(N)(=O)=O)cc2)c(C)o1 | i | -0.79
COc1ccc(CCc2nnc(N)s2)cc1OC | i | 0.63
CCOC(=O)/C(C#N)=C1\C(=O)N(Cc2ccccc2)c2ccccc21 | i | 0.01
O=C(Nc1ccc(OCc2ccccc2)cc1)c1ccccc1 | i | -0.65
CCNC(=O)CSc1nc2cc(S(=O)(=O)Nc3ccc(OC)cc3)ccc2o1 | i | -0.02
COC(=O)N/N=C\c1ccc(OC/C=C/c2ccccc2)c(OC)c1 | i | 0.64
CCCCCCCNC(=O)C1(CC2CC(c3cccc(Br)c3)=NO2)CCN(C(=O)C2CCCC2)CC1 (configuration not stated) | i | 0.04
COc1cccc(CNC(=O)CCC2CCCN(C(=O)c3cccc4c(C)c(C)[nH]c34)C2)c1 (configuration not stated) | i | 0.28
N#C/C(=C\c1cccnc1)c1ccc([N+](=O)[O-])cc1 | i | -0.11
CN1CCSc2ccc(C(=O)Nc3cc(F)ccc3F)cc21 | i | -0.56
